PKD1 kinase inh – PKD1 (human) kinase inhibition; Q15139; PKD1 kinase fluorescence polarization assay; inhibition, %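 (about 10 µM by stock and volumes)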; 200,000 tested, 0.056% active; AID 797;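 active = inhibition of 50% or more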;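 also: controls were vehicle for no effect and a reference inhibitor for full effect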
Target sequence (Q15139 whole entry, looked up): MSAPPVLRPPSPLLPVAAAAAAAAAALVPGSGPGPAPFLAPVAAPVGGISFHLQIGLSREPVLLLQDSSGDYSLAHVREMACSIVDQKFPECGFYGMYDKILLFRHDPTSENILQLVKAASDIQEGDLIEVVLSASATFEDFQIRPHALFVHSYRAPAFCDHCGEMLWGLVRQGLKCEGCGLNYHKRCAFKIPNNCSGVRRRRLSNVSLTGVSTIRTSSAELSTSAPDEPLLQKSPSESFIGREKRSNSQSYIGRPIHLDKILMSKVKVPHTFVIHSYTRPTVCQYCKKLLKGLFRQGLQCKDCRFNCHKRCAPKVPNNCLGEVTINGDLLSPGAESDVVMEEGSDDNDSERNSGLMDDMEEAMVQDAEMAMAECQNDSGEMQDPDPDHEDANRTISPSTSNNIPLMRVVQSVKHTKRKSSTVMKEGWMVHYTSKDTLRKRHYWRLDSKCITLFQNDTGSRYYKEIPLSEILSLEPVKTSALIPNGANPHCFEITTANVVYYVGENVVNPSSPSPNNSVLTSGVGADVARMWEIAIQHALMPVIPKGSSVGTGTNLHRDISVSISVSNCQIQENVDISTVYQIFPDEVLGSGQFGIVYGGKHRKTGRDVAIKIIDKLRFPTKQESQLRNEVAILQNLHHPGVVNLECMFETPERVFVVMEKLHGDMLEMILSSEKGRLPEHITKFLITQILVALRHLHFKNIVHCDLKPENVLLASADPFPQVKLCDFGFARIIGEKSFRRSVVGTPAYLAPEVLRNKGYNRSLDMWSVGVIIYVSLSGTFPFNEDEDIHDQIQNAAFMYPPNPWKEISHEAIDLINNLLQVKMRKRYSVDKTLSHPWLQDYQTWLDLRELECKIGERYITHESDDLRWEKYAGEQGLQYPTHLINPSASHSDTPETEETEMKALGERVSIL
HSV replic up – increases HSV replication in cells; HSV replication augmentation in cells, fold increase; maximum fold increase; 220,000 tested, 0.005% active; AID 1956;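 active = peak rise of 1.5-fold or more in the series; tested in PC3 cells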;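 also: first round at 10 µM; read as green reporter fluorescence; hits show the peak of a series up to 25 µM; 1 = signal of infected wells without compound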
GALR2 agonist – agonists of human galanin receptor 2 (GALR2). GALR2-expressing cells, agonist activation read-out. AID 803. 140,000 tested, 0.48% active. O43603. activation, %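 (tested at 5 µM)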;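 active = above mean plus 3 SD of all compounds, about 5% in these data, not always enough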;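 also: 0% = vehicle buffer wells and 100% = reference agonist at full effect; tested in CHO reporter cells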
INS promoter inh – TRM-6 insulin promoter activity inhibition. 130,000 tested, 0.9% active. AID 1273. TRM-6 cells (human fetal islet line), insulin promoter-eGFP reporter, imaging; reporter expression induced with tamoxifen. inhibition, % at 2 µM;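 active = inhibition above the mean plus 3 SD, with well images judged a real hit on visual review, cut at about 60% in these data, passing the limit was not always enough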
RGS16-Gao HTS – regulators of human RGS16-Galphao interaction; O15492+P09471; bead-based flow cytometry RGS16-Galphao binding, fluorescence; actives lie on both sides; binding response (% of control), % at 10 µM; 220,000 tested, 0.38% active; AID 1441;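 active = below 25% or above 175%, edge rows of some plates excepted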;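 also: Galphao activated by GDP with aluminum fluoride before binding; 100% = wells without compound and 0% = beads without RGS; some results beyond the cut were filed as inactive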
INS promoter inh cell count – also measured in INS promoter inh; calls as there; normalized cell count, %; measured here: cell count, toxicity; reference of the scale not given here;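 cells exposed to compound for 48 h; stained nuclei by imaging scaled within each plate; lower means fewer cells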
HSV replic up primary fold – second read-out of HSV replic up, no call of its own (marks repeat the call); fold increase; compound at 10 µM; measured here: primary screen fold increase 10 uM; tested in PC3 cells;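 GFP signal in the first replicate; 1 = infected wells without compound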
An asterisk follows results filed as active; i = inactive; / = no result given. Rows were taken by chance; overall some 1.3% were active at least once.

SMILES	PKD1 kinase inh	HSV replic up	HSV replic up primary fold	GALR2 agonist	INS promoter inh	INS promoter inh cell count	RGS16-Gao HTS
COc1ccc(/C(O)=C2/C(=O)C(=O)N(CCN(C)C)C2c2cccnc2)cc1C (stereo not drawn)	-0.6	i	0.99	/	/	/	99.7
COc1ccc(S(=O)(=O)NCCSCc2ccco2)cc1OC	2.5	i	0.99	-1.9	8.7	103.2	89.0
Cc1ccc(N(CC(=O)Nc2cc(Cl)ccc2Oc2ccccc2)S(C)(=O)=O)cc1C	-0.8	i	0.98	-1.0	-47.8	49.6	102.8
CCOc1ccc(N(C(C)C(=O)N/N=C(\C)C(C)(C)C)S(C)(=O)=O)cc1 (stereo not drawn)	-11.4	i	1.09	-1.1	-14.3	185.8	94.8
COc1ccc(/C=N\NC(=O)C2COc3ccccc3O2)cc1O (stereo not drawn)	/	i	0.84	/	/	/	102.4
COCCNC(=O)C1CCC(=O)N(c2ccc(OC)cc2)C1c1ccc(OC)c(OC)c1 (stereo not drawn)	-0.7	i	0.97	-1.4	19.4	79.5	119.8
CCOC(=O)c1nnc(-c2ccc(C)cc2)nc1Sc1ccc(Cl)cc1	2.4	i	0.97	-0.8	/	/	103.7
Cc1cc(=O)[nH]c(N/N=C/c2c(C)nn(-c3ccccc3)c2Cl)n1	/	i	0.92	/	/	/	109.7
Cc1ccc(CNC(=O)c2ccccc2-n2cnnn2)cc1	/	i	0.92	/	/	/	100.8
C=CCNC(=O)/C(=C/c1ccccc1OCC)NC(=O)c1ccccc1	-5.2	i	0.83	-1.3	-10.7	118.0	101.2
COc1c(Cl)ccc(Cl)c1C(=O)NC(=O)N1CCOCC1	-7.3	i	1.36	-1.3	/	/	108.6
COc1ccc(/C=C/C2=CC(C)(C)NC(=S)N2)cc1OC	-6.7	i	0.88	/	0.0	93.8	103.4
CC1(C)CC(NC(=O)C(=O)NCCc2ccccc2)CC(C)(C)N1	/	i	0.93	/	/	/	95.5
O=C(Nc1cccnc1)c1cc(-c2cccs2)on1	0.7	i	0.9	-1.3	18.2	104.5	97.2
CCOC(=O)N1N=C(C)CC1(O)c1ccc(Cl)cc1 (stereo not drawn)	-11.4	i	0.92	/	-25.0	126.6	99.8
COc1ccc(CCN2C(=S)N(c3ccc(Cl)cc3)C(=O)C2CC(N)=O)cc1OC (stereo not drawn)	/	i	0.9	/	/	/	95.6
N#C/C(=C\c1ccc(OC(=O)c2ccccn2)cc1)C(N)=O	-0.4	i	1.38	0.0	/	/	105.9
Cn1c(=NC(=O)c2cnccn2)sc2ccccc21	-3.4	i	0.943	-2.3	/	/	87.4
CCOC(=O)N1CCN(C(=O)CCn2c(=S)[nH]c3cc(OCC)c(OCC)cc3c2=O)CC1	-26.4	/	/	-1.8	-114.3	73.2	66.8
O=C(CSc1nnc2ccccn12)NCc1ccc2c(c1)OCO2	-4.3	i	0.96	/	/	/	93.8
NC(=O)CCC(NS(=O)(=O)c1ccc(Cl)cc1)C(=O)NCc1ccccc1Cl (stereo not drawn)	11.4	i	0.95	0.4	23.8	116.1	103.2
O=C(OCc1c(Cl)nc2sccn12)c1cc2c(s1)CCCC2	-10.1	/	/	-0.9	-23.1	81.0	100.6
COC(=O)CSc1nc(C)cc(C(F)(F)F)c1C#N	2.6	i	0.88	-0.9	27.9	99.2	92.7
Nc1c(C(=O)NCc2ccc3c(c2)OCO3)c2nc3ccccc3nc2n1CCCN1CCOCC1	-10.6	i	1.28	32.1*	/	/	94.5
COc1cc(OC)cc(OCC(O)Cn2ccnc2C)c1 (stereo not drawn)	-1.8	i	1.04	0.2	/	/	100.3
CSc1ccc(C(=O)C2CCCN(C(=O)c3cccnc3SC)C2)cc1 (stereo not drawn)	0.4	i	0.87	/	/	/	54.3
FC(F)(F)c1cccc(Cc2noc(CN(Cc3ccccn3)CC3CCCO3)n2)c1 (stereo not drawn)	/	i	0.96	/	/	/	99.7
COc1cccc(NC(=O)CS(=O)(=O)c2cn(CC(=O)N3CCOCC3)c3ccccc23)c1	-8.5	i	1.05	/	/	/	98.8
CC(=O)N1CCCC(C(=O)c2ccc(Oc3ccccc3)cc2)C1 (stereo not drawn)	-1.7	i	1.09	/	/	/	114.7
COCC(=O)n1nc(-c2ccc(Cl)cc2)nc1NCc1ccc(F)cc1	-5.4	i	0.96	-0.9	-53.3	124.4	100.4
CCN1C(=O)/C(=C/N2CC(C)CC(C)C2)SC1=S (stereo not drawn)	-18.8	i	0.95	-1.1	/	/	101.9
CN(C)CCCN(Cc1ccccc1)C(=S)Nc1ccc(F)c(Cl)c1	-0.1	i	1.04	/	/	/	103.9
O=C(Nc1nc2ccsc2c(=O)s1)c1ccc(Cl)cc1	/	i	0.95	/	/	/	97.4
COc1ccc(S(=O)(=O)N2CCOCC2)cc1C(=O)Nc1ccon1	6.9	i	1.06	-2.0	-386.5	54.0	105.1
CCOC(=O)N1CCC(c2nc(C)sc2C(=O)O)CC1	5.9	i	0.79	-1.4	-38.9	124.9	118.4
Cc1ccc(NCc2nnc(SCC(N)=O)n2CCc2ccccc2)cc1	-2.5	i	0.81	-2.0	22.6	124.7	-31.5
Cc1cc(C(=O)CN2C(=O)C(=O)N(Cc3ccccc3)C2=O)c(C)n1-c1ccc2c(c1)OCCO2	7.5	i	0.76	/	40.0	77.4	105.8
Cc1nnc(N2CCOCC2)c2nn(-c3ccccc3)c(C)c12	3.7	i	0.95	-0.9	15.4	118.2	221.3
Cc1ccccc1-c1nc(CN2CCCC2c2ccc(F)cc2)c(C)o1 (stereo not drawn)	-8.9	i	1.11	/	-61.1	135.1	103.2
O=C(Nc1ccc2c(c1)OCCO2)NC12CC3CC(CC(C3)C1)C2	-4.8	i	0.94	-0.1	14.7	115.9	101.3
COCCNC(=S)N=Nc1c(O)[nH]c2c(C)cc(C)cc12	-5.5	i	0.8	/	/	/	102.3
COc1cccc(-c2ccc(=O)n(CC(=O)Nc3ccc(S(=O)(=O)NCC(C)C)cc3)n2)c1	-8.4	i	0.82	/	/	/	110.7
COc1ccc(N/N=C(/C(C)=O)N2CCCc3ccccc32)cc1	/	i	1.08	/	/	/	92.0
Cc1cc2n(n1)C(c1cn(-c3ccccc3)nc1C)Nc1ccccc1-2 (stereo not drawn)	-5.0	i	1.06	-2.1	/	/	90.0
COC(=O)CSc1nc(N)nc(C)c1Br	16.5	i	0.92	-0.6	/	/	98.0

By substructure: those above with a cyano group
SMILES	PKD1 kinase inh	HSV replic up	HSV replic up primary fold	GALR2 agonist	INS promoter inh	INS promoter inh cell count	RGS16-Gao HTS
N#C/C(=C\c1ccc(OC(=O)c2ccccn2)cc1)C(N)=O	-0.4	i	1.38	0.0	/	/	105.9
COC(=O)CSc1nc(C)cc(C(F)(F)F)c1C#N	2.6	i	0.88	-0.9	27.9	99.2	92.7

Carrying on:
SMILES	PKD1 kinase inh	HSV replic up	HSV replic up primary fold	GALR2 agonist	INS promoter inh	INS promoter inh cell count	RGS16-Gao HTS
NC(=O)CNC(=O)[C@@H]1CC2(CC(c3ccc(Cl)cc3)=NO2)CN1C(=O)c1ccc(Br)cc1 (stereo partly drawn)	-1.8	i	0.87	-2.5	/	/	91.8
O=C(Nc1ccccc1-c1nnn(CC(=O)N2CCc3ccccc3C2)n1)C1CCC1	-1.9	i	0.95	-0.8	-24.1	158.8	96.5
O=C(CNCCC1=CCCCC1)Nc1ccccc1N1CCCCCC1	/	i	1.05	/	/	/	104.4
Cc1ccc(-n2cc(CNCCCn3cccn3)c(-c3cccc(C)c3)n2)cc1	/	i	0.68	/	/	/	98.6
CCCCOc1cccc(C2(C(=O)O)CCCC2)c1	5.8	i	0.85	-0.3	-28.6	102.2	106.8
Cc1ccc(CNC(=O)Cn2c(=O)c3sccc3n(Cc3ccc([N+](=O)[O-])cc3)c2=O)cc1	-5.0	i	0.73	-0.7	-30.0	123.5	103.4
O=[N+]([O-])c1cc(C(F)(F)F)ccc1Sc1ccccn1	3.7	i	1.07	-1.6	-30.8	115.8	100.0
Cn1c(C(=O)NCCN2CCc3ccccc3C2)cc2c(=O)n(C)c3ccccc3c21	-13.0	i	1.29	-1.8	/	/	93.7
Cc1cccc(-n2c(=S)[nH]c3c(oc4ccccc43)c2=O)c1	0.4	i	1	-0.1	-12.0	28.0	46.1
Cc1c(-c2ccccc2)[n+](=O)c2c(n1[O-])CCCCC2	6.4	i	0.95	-0.2	-17.9	66.4	107.6
Cc1cc(C(=O)N/N=C/c2cccnc2)cs1	-10.5	i	1.01	-1.8	-33.3	122.1	97.7
COc1ccc(CN(C(=O)/C=C/c2ccccc2Cl)C2CCS(=O)(=O)C2)cc1 (stereo not drawn)	/	i	0.94	/	/	/	107.4
O=C(C1CCCN(Cc2cccc(F)c2)C1)N1CCCCC1 (stereo not drawn)	-12.5	i	0.81	-2.2	-38.9	83.6	102.7
Cc1ccccc1-c1nc(CS(=O)(=O)CC(=O)NCCCN2CCCC2=O)c(C)o1	-10.2	i	0.9	-0.2	-128.6	87.2	102.6
CNC(=S)NNC(=O)c1sccc1OCc1ccc(Cl)cc1Cl	1.5	i	0.92	-1.6	/	/	93.7
Cc1cccc(OC(=O)c2sc3ncn(C)c(=O)c3c2C)c1	-1.3	/	/	/	-38.5	91.2	104.4
COc1cc(NC(=S)Nc2ccc(OC(F)F)cc2)cc(OC)c1	/	i	1.01	/	/	/	100.3
Cc1c(Cl)cccc1N1CC(C)(C)C1=O	-1.1	i	0.85	/	30.8	93.3	104.3
Cc1ccc(S(=O)(=O)N2CCOCC2)cc1C(=O)NC(=S)N(Cc1ccccc1)C(C)C	-0.7	i	1.1	0.2	14.3	101.2	105.6
Nc1nnn(CC(=O)N/N=C/c2cn[nH]c2-c2ccccc2)n1	/	i	0.78	/	/	/	104.4
O=C(N/N=C/c1cccc([N+](=O)[O-])c1)c1ccccc1-n1cccc1	2.2	i	1.01	/	/	/	102.3
Cn1nc(CC(=O)NCCN2C(=O)CSC2=O)c2ccccc2c1=O	-11.9	i	0.8	-1.3	/	/	101.7
CCN(CC)S(=O)(=O)c1ccc2oc(C(=O)NC(C)C)c(C)c2c1	-9.4	i	0.86	-1.5	8.7	77.4	100.5
COc1ccc(S(=O)(=O)N2CCCCCC2)cc1NC(=O)Cc1cc(OC)c(OC)c(OC)c1	1.4	i	0.95	0.2	-69.2	116.0	103.8
O=Nc1c(O)n(Cc2cccc(Cl)c2)c2ccccc12	6.3	i	0.95	-7.4	-130.8	92.0	98.2
Cc1ccccc1C(=O)Nc1ccc(C(=O)NNC(=O)CCCOc2ccc(Cl)cc2Cl)cc1	-13.9	i	1.1	0.9	/	/	100.9
CC(C)C(O)(C#CCN1CCCCC1)C(C)C	-0.4	i	1.02	0.4	/	/	102.8
CCC(=O)N1CCc2cc(S(=O)(=O)CCC(=O)Nc3ccc(CC)cc3)ccc21	23.5	/	/	0.5	-141.7	40.2	102.9
CN(C)/C=N/C(=S)Nc1ccc(Cl)c(Cl)c1	0.1	i	0.88	/	/	/	99.7
O=S1(=O)CCC(NS(=O)(=O)/C=C/c2ccccc2)C1 (stereo not drawn)	-6.4	i	1.05	-2.1	-54.8	185.6	106.0

Single entries from the list:
In HSV replic up primary fold, CCOC(=O)N1CCC(c2nc(C)sc2C(=O)O)CC1 reads 0.79
In RGS16-Gao HTS, COc1ccc(CCN2C(=S)N(c3ccc(Cl)cc3)C(=O)C2CC(N)=O)cc1OC (stereo not drawn) reads 95.6
In RGS16-Gao HTS, O=C(Nc1cccnc1)c1cc(-c2cccs2)on1 reads 97.2
In RGS16-Gao HTS, CC(=O)N1CCCC(C(=O)c2ccc(Oc3ccccc3)cc2)C1 (stereo not drawn) reads 114.7

(continued)
SMILES	PKD1 kinase inh	HSV replic up	HSV replic up primary fold	GALR2 agonist	INS promoter inh	INS promoter inh cell count	RGS16-Gao HTS
Cc1oc(C(=O)O)cc1COc1cccc2cccnc12	-11.1	i	1.1	-1.2	-61.5	92.3	99.1
Cc1nc(N2CCOCC2)nc(N2CCN(c3ccccc3)CC2)c1[N+](=O)[O-]	-4.5	i	0.83	-3.3	-3.3	88.9	102.4
Cc1ccc(-n2c(SCC(=O)Nc3cccc(C)c3)nc3c(oc4ccccc43)c2=O)cc1	9.7	i	1.07	-1.8	16.1	53.0	119.6
O=C(COc1cccc2c1CCN(Cc1ccc(Br)cc1)C2=O)NCc1ccco1	-6.4	/	/	-1.7	/	/	101.5
Cc1ccc2oc(=O)c3cnn(CC(=O)NCCN(C)C)c3c2c1	-2.4	i	0.97	-1.6	/	/	103.3
